Cruzain inh noDet: qHTS Assay for Promiscuous and Specific Inhibitors of Cruzain (without detergent); hit rate 2.3% among 200,000; purified cruzain, Z-FR-AMC fluorescence, no detergent; Potency, µM, for the others: max response, negative = inhibition, most hits filed as inhibitors;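 note: plate controls were enzyme without inhibitor for no effect and buffer without enzyme for full effect; nearly all actives have a fitted effect of over 40% in size; top concentration of the series not given in the record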
Target sequence (P25779 123-467 limits assumed): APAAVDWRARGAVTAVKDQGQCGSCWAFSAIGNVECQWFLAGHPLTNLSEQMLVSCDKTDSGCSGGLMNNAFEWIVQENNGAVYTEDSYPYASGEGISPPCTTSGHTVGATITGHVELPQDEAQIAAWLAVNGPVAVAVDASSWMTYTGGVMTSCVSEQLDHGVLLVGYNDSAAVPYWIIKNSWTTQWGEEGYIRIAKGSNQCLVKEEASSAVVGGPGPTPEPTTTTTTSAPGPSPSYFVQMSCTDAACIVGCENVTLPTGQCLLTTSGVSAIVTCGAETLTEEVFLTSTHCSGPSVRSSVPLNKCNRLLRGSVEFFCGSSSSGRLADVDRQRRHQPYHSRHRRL
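Detergent-free condition (0.00005% Triton X-100) in acetate buffer pH 5.5 with DTT. 1.5 nM enzyme and compound were pre-mixed 15 min, then 2 uM Z-FR-AMC substrate added; reaction progress from fluorescence change between first and third reads (60 s).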
RE007 growth inh: qHTS Assay for Inhibitors of the HIV-1 protein Vpr. S. pombe RE007 Vpr strain, BacTiter-Glo ATP luminescence, 24 h; control for the full effect not named in the record. Potency, µM (titrated, usually from 92.2 µM), without a hit: at the top dose activity change, negative = less growth. hit rate 0.21% among 360,000; active = well fitted falling curve with a large enough effect; inconclusive = small, poorly fitted or top-dose-only effect; inactive = no such curve, though single readings can be large or run the other way;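 note: % is set by controls: 0 for no effect and ±100 for the full control effect; nearly all actives have a fitted effect of over 50% in size; the assay follows cell death caused by Vpr and the record does not say whether a fall means rescue or toxicity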
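Fission yeast RE007 carrying one integrated HIV-1 vpr copy, seeded at OD 0.01 in PMG+AL medium with 23 nL pinned compound. Grown 24 h at 30 degrees; viability read by BacTiter-Glo luminescence after 5 min.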
SARS PLP yeast: qHTS of Yeast-based Assay for SARS-CoV PLP. hit rate 0.19% among 330,000. AID 485353, 2010. S. cerevisiae expressing SARS-CoV PLpro, growth rescue; control for the full effect not named in the record. Potency, µM (series often up to 32.9 µM), inactives show top-dose activity, positive = growth rescue; active means well fitted rising curve with a large enough effect; inconclusive means small, poorly fitted or top-dose-only effect; inactive means no such curve, though single readings can be large or run the other way; note: 0% is about no effect; nearly all actives have a fitted effect of over 55% in size; growth read by luminescence after 48 h
Cruzain inh Det: qHTS Assay for Promiscuous and Specific Inhibitors of Cruzain (with detergent); Potency, µM, for the others: max response, negative = inhibition, hits mostly inhibitors; AID 1478, 2009; Cruzipain (Trypanosoma cruzi), P25779; hit rate 0.43% among 200,000; purified cruzain, Z-FR-AMC fluorescence, 0.01% Triton;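 note: plate controls were neutral wells for no effect and buffer without enzyme for full effect; nearly all actives have a fitted effect of over 40% in size; top concentration of the series not given in the record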
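In this qHTS format, compounds are incubated with 1.5 nM cruzain for 15 min at room temperature before 2 uM Z-FR-AMC is added. Release of AMC is followed at 360/450 nm, and progress is taken as the 60 s fluorescence difference.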
NS1 function inh: qHTS Assay for Inhibitors of Influenza NS1 Protein Function. S. cerevisiae slowed by influenza A NS1, growth recovery by OD600. hit rate 0.4% among 270,000. Potency, µM (top dose mostly 46.1 µM), without a hit: at the top dose activity, positive = more growth; active means well fitted rising curve with a large enough effect; inconclusive means small, poorly fitted or top-dose-only effect; inactive means no such curve, though single readings can be large or run the other way; note: nearly all actives have a fitted effect of over 50% in size
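OD600 was taken as the measure of yeast growth restored by compound in an NS1-expressing S. cerevisiae strain. Cells had been washed out of glucose medium and diluted 1:100 into galactose -URA medium, pH 6.0.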
MARV entry inh: qHTS for inhibitors of binding or entry into cells for Marburg Virus; Marburg virus pseudotyped entry inhibition, cell reporter; control for the full effect not named in the record; about a third of the inactives were read at about 46 µM; Potency, µM (series often up to 37.8 µM), for inactives: at the top dose activity change, negative = inhibition, actives largely listed as inhibitors; hit rate 1.8% among 300,000; active = well fitted inhibition curve with a large enough effect; inconclusive = small, poorly fitted or top-dose-only effect, or effect the other way; inactive = flat fitted curve, though single readings scatter; tested in HEK293 cells; about a fifth of its hits are not listed in these tables; note: % is set by controls: 0 for no effect and ±100 for the full control effect; luciferase read-out
Lassa entry inh: qHTS for Inhibitors of binding or entry into cells for Lassa Virus; Lassa virus pseudotype entry inhibition, cell reporter; control for the full effect not named in the record; Potency, µM (titrated, usually from 37.9 µM), inactives show at the top dose activity change, negative = inhibition, most hits filed as inhibitors; hit rate 1.2% among 300,000; AID 540256, 2011; active means well fitted inhibition curve with a large enough effect; inconclusive means small, poorly fitted or top-dose-only effect, or effect the other way; inactive means flat fitted curve, though single readings scatter; tested in HEK293 cells; note: % is set by controls: 0 for no effect and ±100 for the full control effect; nearly all actives have a fitted effect of over 50% in size; luciferase read-out
StopGo reporter: High Throughput Screening for Foot and Mouth Disease Virus Antivirals; hit rate 1.2% among 410,000; Potency, µM (doses to about 57.9 µM), for the others: at the highest dose signal change, negative = less light; AID 1159524, 2015; human cells with a luciferase reporter of 2A StopGo recoding; control for the full effect not named in the record; active = well fitted falling curve with a large enough effect; inconclusive = small, poorly fitted or top-dose-only effect; inactive = no such curve, though single readings can be large or run the other way; tested in HEK293T cells; note: % is set by controls: 0 for no effect and ±100 for the full control effect; nearly all actives have a fitted effect of over 45% in size; luciferase light after 4 h
* = called active by the depositor; & = joins results of further samples; [ ] = remark or other dose. Unless noted, calls come from the whole dose curve; as a rule, active = well fitted curve in the direction sought with a large enough effect; inconclusive = small, poorly fitted or top-dose-only effect, or another doubt; inactive = no such curve, though single readings can be large; an effect the other way counts as inactive or inconclusive. Potency is the fitted concentration of half-maximal effect.

`N#Cc1ccc(C(=O)Nc2ccc(N3CCN(C(=O)c4ccco4)CC3)cc2)c(F)c1` gave Cruzain inh noDet 4%, RE007 growth inh -4%, SARS PLP yeast -4%, Cruzain inh Det 4.4%, NS1 function inh -1%, MARV entry inh -10%, Lassa entry inh -2% and StopGo reporter -16%.
O=C(CCNC(=O)c1ccc(Br)cc1)NNC(=O)C1COc2ccccc2O1 (stereo not drawn) was read as RE007 growth inh -3%, SARS PLP yeast 2%, MARV entry inh -3%, Lassa entry inh -1% and StopGo reporter -15%.
`COc1ccc(N2C(=O)/C(=C\c3ccco3)N=C2SCC(=O)N(C(C)C)C(C)C)cc1Cl` gave Cruzain inh noDet 14%, RE007 growth inh -5%, SARS PLP yeast -7%, Cruzain inh Det -7.8%, NS1 function inh inconclusive, MARV entry inh 4%, Lassa entry inh 0% and StopGo reporter -17%.
COc1ccc(OCc2nnc(SCC(=O)NC3CC3)n2C)cc1 was read as RE007 growth inh -1%, SARS PLP yeast 0%, NS1 function inh 4%, MARV entry inh 7%, Lassa entry inh 2% and StopGo reporter -18%.
`COC(=O)c1c(-c2cccs2)csc1NC(=O)COc1ccc(C(C)C)cc1` gave Cruzain inh noDet inconclusive, Cruzain inh Det -9.3%, MARV entry inh 9%[46.1 µM], Lassa entry inh 4%[46.1 µM] and StopGo reporter -28%.
Cc1ccc(C(=O)NC2CCCC(C)C2C)cc1S(=O)(=O)N1CCCCC1 (stereo not drawn) was read as RE007 growth inh 3%, SARS PLP yeast -9%, MARV entry inh -23%[46.1 µM], Lassa entry inh inconclusive and StopGo reporter -4%.
Screening COc1cc2cnc(Cl)nc2cc1OC returned Cruzain inh noDet -3%, RE007 growth inh 2%, SARS PLP yeast 0%, Cruzain inh Det -3.2%, NS1 function inh -6%, MARV entry inh inconclusive, Lassa entry inh -1% and StopGo reporter 0%.
CC(=O)c1ccc(NC(=O)CN2C(=O)COc3ccc(S(=O)(=O)N4CCCC4)cc32)cc1 was read as RE007 growth inh -7%, SARS PLP yeast 1%, NS1 function inh -5%, MARV entry inh -11%[46.1 µM], Lassa entry inh 10%[46.1 µM] and StopGo reporter 0%.
`OC1CCN(C(=S)NCCc2ccccc2)CC1` gave Cruzain inh noDet -1%, RE007 growth inh -1%, SARS PLP yeast 0%, Cruzain inh Det -2.6%, NS1 function inh -1%, MARV entry inh 17%, Lassa entry inh 19% and StopGo reporter 47%[activator].
`CCOc1ccc(C(=O)c2cn(CC(=O)Nc3ccc(F)cc3)c3cc4c(cc3c2=O)OCO4)cc1` gave Cruzain inh noDet 13%, Cruzain inh Det 4.2%, MARV entry inh 9%[46.1 µM], Lassa entry inh 6%[46.1 µM] and StopGo reporter -21%.
`Cc1nccn1CCN(C)Cc1cn(Cc2ccccc2)nc1-c1ccc2c(c1)OCO2` gave RE007 growth inh -14%, SARS PLP yeast 0%, NS1 function inh -4%, MARV entry inh inconclusive, Lassa entry inh 12% and StopGo reporter 7%.
`COc1cccc(Nc2nnc(SCC(=O)N3CC(C)OC(C)C3)s2)c1` (stereo not drawn) gave Cruzain inh noDet 1%, RE007 growth inh 10%, SARS PLP yeast 2%, Cruzain inh Det 0.1%, NS1 function inh -13%, MARV entry inh -1%, Lassa entry inh -20% and StopGo reporter -6%.
CCc1cc(=O)[nH]c(SCC(=O)NCC2CCCO2)n1 (stereo not drawn) was read as RE007 growth inh 30%, SARS PLP yeast -6%, MARV entry inh -4%[46.1 µM], Lassa entry inh 1% and StopGo reporter 0%.
Screening O=C(C1CCC(=O)N1Cc1ccc(F)cc1)N1CCC2(CC1)OCCO2 (stereo not drawn) returned Cruzain inh noDet -4%, RE007 growth inh 3%, SARS PLP yeast 2%, Cruzain inh Det 4.2%, NS1 function inh -4%, MARV entry inh 2%, Lassa entry inh -5% and StopGo reporter -15%.
O=C(COc1ccc(Cl)cc1Cl)Nc1ccc(S(=O)(=O)NC2=NCCCCC2)cc1 was read as Cruzain inh noDet 14%, RE007 growth inh 8%, SARS PLP yeast 26%, Cruzain inh Det -12%, NS1 function inh 11%, MARV entry inh -1% and StopGo reporter 1%.
COc1cc(S(=O)(=O)N2CCCCC2)c(OC)cc1Br was read as RE007 growth inh -23%, SARS PLP yeast 4%, NS1 function inh 7% and StopGo reporter -13%.
Screening Fc1ccc(CN2CCCCCC2)c(F)c1 returned Cruzain inh noDet -4%, RE007 growth inh 11%, SARS PLP yeast 10%, Cruzain inh Det 1.2%, NS1 function inh 6%, MARV entry inh 12%, Lassa entry inh 11% and StopGo reporter 24%.
`Brc1ccccc1-n1nnc(-c2nccs2)n1` gave RE007 growth inh -16%, SARS PLP yeast -3%, NS1 function inh -11% and StopGo reporter 45%[activator].
Screening O=C(N/N=C/c1ccc([N+](=O)[O-])s1)c1cccc(Br)c1 returned Cruzain inh noDet inconclusive, RE007 growth inh inconclusive, SARS PLP yeast -44%, Cruzain inh Det -7.0%, NS1 function inh 2%, MARV entry inh inconclusive, Lassa entry inh -29% and StopGo reporter inconclusive.
Screening O=S(=O)(CC(c1ccccc1)N1CCCCC1)c1ccc(Cl)cc1 (stereo not drawn) returned RE007 growth inh 6%, SARS PLP yeast -1%, NS1 function inh -4%, MARV entry inh -17%[46.1 µM], Lassa entry inh -27%[46.1 µM] and StopGo reporter 8%.
c1ccc2nc(N3CCOCC3)c(N3CCOCC3)nc2c1 was read as Cruzain inh noDet 4%, RE007 growth inh 2%, SARS PLP yeast 4%, Cruzain inh Det 3.4%, NS1 function inh -7%, MARV entry inh -4%, Lassa entry inh 8% and StopGo reporter -3%.
`CCOC(=O)c1c(-c2ccccc2)csc1NC(=O)c1cc(-c2ccc(C)c(F)c2)on1` gave Cruzain inh noDet 2%, Cruzain inh Det -3.5%, MARV entry inh 2%[46.1 µM], Lassa entry inh -22%[46.1 µM] and StopGo reporter -6%.
Nc1nnc(CSCc2ccc(Cl)cc2)s1 was read as Cruzain inh noDet 1%, RE007 growth inh -12%, SARS PLP yeast -22%, Cruzain inh Det -0.9%, NS1 function inh 2%, MARV entry inh inconclusive, Lassa entry inh 3% and StopGo reporter -28%.
`O=C(NCc1ccc(F)cc1)c1ccc(CS(=O)Cc2ccc(Cl)cc2)o1` (stereo not drawn) gave Cruzain inh noDet 23%, Cruzain inh Det 4.3%, Lassa entry inh -29%[46.1 µM] and StopGo reporter -24%.
For O=C(NC(=S)Nc1ccc2c(c1)OCCO2)c1ccco1 the results were RE007 growth inh -15%, SARS PLP yeast 2%, NS1 function inh 0%, MARV entry inh inconclusive, Lassa entry inh inconclusive and StopGo reporter 23%.
`CCc1nnc(SCc2nc(-c3cccc(C)c3)oc2C)c2cc3sc(C)cc3n12` gave Cruzain inh noDet -18%, Cruzain inh Det -2.8%, Lassa entry inh 17%[46.1 µM] and StopGo reporter -5%.
For O=C(OCc1cc(=O)n2c(n1)sc1ccccc12)c1ccc2c(=O)n3c(nc2c1)CCC3 the results were Cruzain inh noDet -1%, RE007 growth inh -10%, SARS PLP yeast -1%, Cruzain inh Det -4.1%, NS1 function inh 8%, MARV entry inh 11%&11%[46.1 µM], Lassa entry inh -6% and StopGo reporter 4%.
`CCCCCC(=O)NC(Nc1ccc(S(N)(=O)=O)cc1)C(Cl)(Cl)Cl` (stereo not drawn) gave Cruzain inh noDet 9%, RE007 growth inh 6%, SARS PLP yeast 1%, Cruzain inh Det -4.5%, NS1 function inh 3%, MARV entry inh -4%, Lassa entry inh 17% and StopGo reporter -24%.
CCN(CC)S(=O)(=O)c1ccc(C(=O)N2CCCCC2)cc1 was read as Cruzain inh noDet 1%, RE007 growth inh 0%[3.69 µM], SARS PLP yeast 16%, Cruzain inh Det -1.9%, NS1 function inh 7%, MARV entry inh -6%, Lassa entry inh -15% and StopGo reporter 18%.
`CCC/C(O)=C1\C(=O)CC(C)(C)CC1=Nc1cccc([N+](=O)[O-])c1` gave RE007 growth inh -1%, SARS PLP yeast 1%, NS1 function inh -5%, MARV entry inh inconclusive, Lassa entry inh 1%[46.1 µM] and StopGo reporter -11%.
COc1ccc(NC(=O)c2cc([N+](=O)[O-])ccc2N2CCCC2)cc1 was read as RE007 growth inh -1%, SARS PLP yeast -1%, NS1 function inh -4%, MARV entry inh -30%[46.1 µM], Lassa entry inh inconclusive and StopGo reporter -25%.
COc1ccc(S(=O)(=O)N2CCCC2C(=O)Nc2ccc(C(C)=O)cc2)cc1 (stereo not drawn) was read as Cruzain inh noDet 2%, RE007 growth inh 12%, SARS PLP yeast -2%, Cruzain inh Det 2.7%, NS1 function inh -17% and StopGo reporter -16%.
CCCC(C)C1(CC)C(=O)NC(=Nc2ccccc2OC)NC1=O (stereo not drawn) was read as Cruzain inh noDet 2%, RE007 growth inh 1%, SARS PLP yeast -1%, Cruzain inh Det -1.7%, NS1 function inh -7%, MARV entry inh -3%, Lassa entry inh -10% and StopGo reporter -18%.
N#CC1=C(SCc2ccc(C#N)cc2)N=C(N)C(c2nc(-c3ccccc3)cs2)C12CCCCC2 (stereo not drawn) was read as Cruzain inh noDet 10µM*, RE007 growth inh 31%, SARS PLP yeast -13%, Cruzain inh Det 5.1%, NS1 function inh 4%, MARV entry inh 7.1µM*, Lassa entry inh inconclusive and StopGo reporter inconclusive.
COC(=O)c1cc(Cc2ccc(N)c(C(=O)OC)c2)ccc1N was read as Cruzain inh noDet -5%, RE007 growth inh 7%, SARS PLP yeast -12%, Cruzain inh Det -15%, NS1 function inh -3%, MARV entry inh inconclusive, Lassa entry inh inconclusive and StopGo reporter inconclusive.
Screening CC(C(=O)c1ccc(-c2ccccc2)cc1)[n+]1cccc(C(N)=O)c1 (stereo not drawn) returned RE007 growth inh -18%, SARS PLP yeast -5%, NS1 function inh -35%, MARV entry inh 12%, Lassa entry inh inconclusive and StopGo reporter 1%.
Screening O=c1[nH]c2ccc(Cl)cc2c(-c2ccccc2)c1SC(=S)N1CCCCC1 returned Cruzain inh noDet -61%, RE007 growth inh 4%, SARS PLP yeast -14%, Cruzain inh Det -4.3%, NS1 function inh 27%, MARV entry inh -1%, Lassa entry inh inconclusive and StopGo reporter -17%.

Screening data as filed in PubChem BioAssay.
